Env fusion inh: inhibitors of HIV-1 Env-driven cell-cell fusion, primary screen, HeLa-JRFL effector, CEM21 target cells, luciferase. inhibition, % at 12.3 µM. actives 1.1% (n = 360,000). AID 651610, 2012;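 active means mean replicate inhibition score of at least 50 and every replicate individually at or above 50; inconclusive means only one of the two criteria met; inactive means mean below 50 and not all replicates reaching 50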;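 further: 0% = plate neutral controls and 100% = maraviroc near 300 nM; one replicate is shown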
UUG fidelity: modulators of yeast start codon fidelity, primary screen, whole organism, S. cerevisiae, single point, plate reader | actives 0.13% (n = 350,000) | S. cerevisiae UUG-firefly luciferase reporter, luminescence/redox ratio | activity score, % at 18.7 µM;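 active means replicate mean at a twofold rise or more, about +100% in these data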;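 further: firefly luciferase made from a UUG start codon reports start codon fidelity; reporter light over untreated wells divided by growth signal over untreated wells; some hits fall short of that in this replicate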
PABP FP inh: PABP poly(A) RNA binding inhibitors, primary screen, biochemical, fluorescence polarization, uHTS. Polyadenylate-binding protein 1 (Homo sapiens), P11940. inhibition, % at 35 µM. actives 1% (n = 290,000). AID 2014, 2009;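 active means 50% or more with normal probe brightness, or confirmed in later tests; inconclusive means above 50% with abnormal brightness, or retests that disagree; inactive means below 50% or failed in later tests; about a fifth of its hits are not listed in these tables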;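 further: calls also rest on retests at 20 µM and on dose response follow-up; controls were probe without protein and protein plus probe with vehicle; some compounds called inactive have numbers as strong as hits; many hits fall short of the cut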
Target sequence (P11940 whole entry, looked up): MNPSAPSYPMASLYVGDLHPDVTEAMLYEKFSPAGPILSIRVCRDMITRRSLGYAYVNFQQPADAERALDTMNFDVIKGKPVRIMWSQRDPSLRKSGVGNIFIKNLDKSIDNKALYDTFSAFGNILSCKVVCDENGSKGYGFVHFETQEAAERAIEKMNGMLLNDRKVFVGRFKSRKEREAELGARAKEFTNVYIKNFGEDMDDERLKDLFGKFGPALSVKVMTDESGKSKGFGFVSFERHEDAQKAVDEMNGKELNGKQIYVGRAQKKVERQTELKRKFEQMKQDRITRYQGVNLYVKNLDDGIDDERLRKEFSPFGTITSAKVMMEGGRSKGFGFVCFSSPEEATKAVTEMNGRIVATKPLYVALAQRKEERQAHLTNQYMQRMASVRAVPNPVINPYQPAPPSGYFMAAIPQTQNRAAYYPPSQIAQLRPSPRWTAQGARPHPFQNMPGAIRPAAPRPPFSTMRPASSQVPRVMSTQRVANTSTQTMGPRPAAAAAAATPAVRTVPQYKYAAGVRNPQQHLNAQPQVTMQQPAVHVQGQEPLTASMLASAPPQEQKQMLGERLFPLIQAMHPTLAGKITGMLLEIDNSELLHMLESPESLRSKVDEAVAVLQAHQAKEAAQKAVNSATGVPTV
CSC inhib: cancer stem cell viability inhibitors, primary screen, luminescence; actives 1.1% (n = 300,000); AID 2717, 2010; cancer stem cell-like cells viability; inhibition, % at 7.5 µM;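 active means mean at 75% or more and at least half the replicates too; inconclusive means mean and replicates disagree; tested in HMLE shEcad cells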;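 further: 0% = median of negative and 100% = median of positive control wells; the first replicate is given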
MT1-MMP act inh: blockers of MT1-MMP proenzyme processing, primary screen, HT1080 RFP-PRO-GFP cells, GFP/RFP fluorescence; GFP/RFP ratio fluorescence, overnight; percent of plate control window, DMSO zero; GFP/RFP ratio change, % at 20 µM; actives 0.061% (n = 360,000); Matrix metalloproteinase-14 (Homo sapiens), P50281;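 active means GFP/RFP ratio change of at least 30% with cell ATP level not reduced by more than half and red fluorescence within 50% of control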; further: strong numbers were not always called active
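Test system: HT1080 cells expressing an RFP-PRO-GFP fluorescent reporter construct / Compound dosing: single-point 20 µM compound, 1% DMSO / Schedule: cells overnight before dosing, compound overnight, 37 °C, 5% CO2 / Evaluation: GFP/RFP fluorescence ratio / Control set: DMSO and RFP-L50D-GFP cell wells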
eIF4H inh: human eIF4H binding inhibitors, primary screen, translation initiation inhibitor project, biochemical, uHTS, fluorescence polarization; Eukaryotic translation initiation factor 4H (Homo sapiens), Q15056; AID 2012, 2009; inhibition, % at 35 µM; eIF4H fluorescence polarization binding assay; actives 0.94% (n = 290,000);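 active means 50% or more with normal probe brightness, or confirmed in later tests; inconclusive means above 50% with abnormal brightness, or retests that disagree; inactive means below 50% or failed in later tests; about a fifth of its hits are not listed in these tables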;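 further: calls also rest on retests at 20 µM and on dose response follow-up; 0% = protein and probe with vehicle and 100% = probe without protein; strong numbers were not always called active; many hits fall short of the cut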
Rce1 inh: yeast Rce1p protease inhibitors, primary screen, biochemical, fluorescence, cell-free homogeneous; CAAX prenyl protease 2 (Saccharomyces cerevisiae (strain ATCC 204508 / S288c)), Q03530; actives 0.27% (n = 290,000); yeast membranes, quenched prenylated peptide cleavage fluorescence; calls only; AID 2563, 2010;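 active means fall in fluorescence gain of 50% or more versus controls, with final raw signal at or below 3038400; inconclusive means same 50% fall but final raw signal above 3038400; inactive means fall in fluorescence gain under 50%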;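 further: plate controls were neutral control wells for no effect and wells lacking membranes for full effect; tested at 10 µM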
eIF4H inh retest: second read-out of eIF4H inh, no call of its own (marks repeat the call); inhibition, %; compound at 20 µM; confirmation average;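 mean of two retest wells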
PABP FP inh retest: second read-out of PABP FP inh, no call of its own (marks repeat the call); inhibition, %; compound at 20 µM; confirmation repeats;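 mean of two retest wells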
MT1-MMP act inh RFP: further read-out of MT1-MMP act inh, marked with its call; RFP signal change, %; measured here: RFP expression control read;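 0 = vehicle wells; hits needed this value within 50% of zero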
* hit, by the source's call; i = inactive; ? = inconclusive; . = no result given.

SMILES	Env fusion inh	UUG fidelity	PABP FP inh	CSC inhib	MT1-MMP act inh	MT1-MMP act inh RFP	eIF4H inh	Rce1 inh	others
CCOc1ccc(OCCC(=O)OCC(=O)NCCc2ccc(S(N)(=O)=O)cc2)cc1	2	-10	.	-3	-3	1	.	.
COc1cc(OC)c(C(=O)NCc2ccco2)cc1OC	-2	-19	4	-7	2	1	-5	i
Cc1ccc(S(=O)(=O)N(CC(=O)N2CCN(c3ccccc3F)CC2)C2CCCCC2)cc1	-56	10	-2	.	-2	-11	-5	i
CCOC(=O)C1=CNS(=O)(=O)NC1c1ccc(C(F)(F)F)cc1 (configuration not stated)	2	12	.	.	-1	1	.	.
CN1CCCC(OC(=O)/C(C#N)=C/c2ccccc2)C1 (configuration not stated)	5	-15	-1	3	2	6	-2	i
Cc1cc(C)cc(OCC(=O)Nc2nc3ccc([N+](=O)[O-])cc3s2)c1	.	-5	-12	35	0	-1	-3	i
CSc1nc(C)cc(Oc2ccc(OCCOc3ccccc3)nn2)n1	11	-3	6	5	5	-3	-2	i
Cc1cc(-c2ccc(Cl)cc2)oc(=O)c1NC(=O)c1ccccc1	.	-29	-4	-1	8	0	-1	i
CCOc1ccc(OCCC(=O)OCC(=O)N2CCN(S(=O)(=O)c3ccc(C)cc3C)CC2)cc1	-3	6	.	.	-1	5	.	.
COC(=O)[C@@H](NC(=O)Nc1cc(Cl)ccc1C)C(C)C	-1	-6	-5	-15	1	4	-9	i
COc1cc(C(=S)N2CCOCC2)ccc1OC(=O)c1cc([N+](=O)[O-])c(C)c([N+](=O)[O-])c1	2	-17	-10	.	0	4	12	i
COc1cc2c(cc1OC)C(C)N(C(=O)C1COc3ccccc3O1)CC2 (configuration not stated)	.	1	1	-10	15	-12	-6	i
CC(C)(C)n1nc2c(c1NC(=O)c1cccc(C(F)(F)F)c1)CS(=O)C2 (configuration not stated)	.	-2	-9	3	-4	2	6	i
CCCc1c(O)nc(SCCN(CC)CC)n(C(=O)c2ccccc2)c1=O	-94	-20	4	-10	1	1	4	i
CCOc1ccc(C2Nc3ccccc3C(CC)(CC)O2)cc1 (configuration not stated)	-7	.	4	-16	-1	4	2	.
CN(CC(=O)Nc1ccccc1Br)C(=O)c1cccc([N+](=O)[O-])c1	-14	53	4	-1	0	1	-2	i
Cc1[nH]nc(NCCO)c1[N+](=O)[O-]	-2	-5	-4	28	-2	-1	-6	i
Cc1cccc(-n2c(N)c(-c3nc4ccccc4n3C)c3nc4ccccc4nc32)c1	-28	.	10	2	-7	-2	27	i
O=C1CCN(S(=O)(=O)c2cccs2)c2ccc(C(F)(F)F)cc2N1	-11	.	-7	-5	1	2	14	i
NC(Cc1ccccc1)C(O)(c1ccccc1)c1ccccc1 (configuration not stated)	-21	.	-9	-7	-6	-4	-7	i
CCOc1ccc(N=Nc2ccc(O)c3ncccc23)cc1	1	-10	-1	103*	13	-7	18	i
Cc1ccc(CSc2ccc(-c3cccs3)nn2)cc1	-231	.	10	-5	-1	4	0	i
COc1cc(C(=O)NCC(c2ccco2)N2CCc3ccccc3C2)cc(OC)c1OC (configuration not stated)	-7	3	.	-9	1	1	.	i
COC(=O)C1=C(C)N=C2SC(C)C(=O)N2C1c1ccc(C(=O)OC)cc1 (configuration not stated)	.	-36	1	10	-11	-12	0	i
CCCCN(CC)C(=O)c1cc2c(=O)[nH]c3ccc(C)cc3c2s1	-21	-1	2	9	-5	-7	-5	i
COc1ccc(-n2c(CCc3ccccc3)nnc2SCC(=O)c2ccc(Cl)cc2)cc1	-47	.	18	-8	-7	-12	-3	i
COc1ccc(CCC(=O)N(C)CC(=O)Nc2ccc(Cl)c(C(F)(F)F)c2)cc1	6	2	13	-5	-1	-5	5	i
CC(C)(C)NS(=O)(=O)c1ccc(OCC(=O)NCc2ccco2)cc1	-14	.	-3	-14	-2	3	10	i
CCn1c(=O)c([N+](=O)[O-])c(N2CCOCC2)c2ccccc21	1	.	-1	-3	1	3	-1	i
NC(=NCCc1c[nH]c2ccccc12)NS(=O)(=O)c1ccc(F)cc1	13	.	2	0	-3	-7	-2	i
Cc1occc1C(=O)Nc1c(F)cc(F)cc1Br	.	1	31	12	-1	1	-3	i
O=C(C[n+]1cccc(CO)c1)Nc1nc2ccccc2s1	-1	.	-1	-10	-3	2	7	i
NNC(=O)Cn1nc(-c2ccccc2)c2ccccc2c1=O	7	-15	1	-5	-3	2	-1	i
Cc1ccccc1-c1cccc([C@@H]2C[C@H]3C(CN2)CON3C)c1 (some centres not stated)	0	20	.	.	1	6	.	.
COc1cccc(NC(=S)/C(=C(\[O-])c2ccc(C)c([N+](=O)[O-])c2)[n+]2ccccc2)c1	-25	-10	8	2	-8	-6	-7	i
O=C(O)c1ccccc1-c1ccccc1C(=O)Nc1cccc(Br)c1	8	.	13	3	-1	2	8	i
CCOC(=O)c1ccc(CNC(=O)C2CCCCC2C(=O)OCC(F)(F)F)o1 (configuration not stated)	6	3	-4	1	-7	-3	-2	i
O=C1CCN1C1(C(=O)NC2CCCCC2)CCCC1	23	-11	3	2	15	4	4	i
O=C(NNC(=O)c1cc(-c2ccncc2)nc2ccccc12)c1cccc(Cl)c1	-22	-1	.	-6	1	-3	.	i
Cc1c(OC(C)C(=O)NCCCN2CCCC2=O)ccc2c3c(c(=O)oc12)CCCC3 (configuration not stated)	3	.	-14	-21	-2	1	-4	i
O=C(COc1ccccc1C(=O)Nc1ccccc1)c1ccc(F)cc1	-8	.	-12	-11	-1	0	-9	i
Nc1ncncc1-c1ccccc1Cl	-14	-17	.	.	-4	1	.	.
COc1cc2c(cc1OC)C(c1ccccc1)=NCC2	11	1	5	.	-6	5	-3	i
Cc1ccc(SCC(=O)n2nc(C)cc2C)cc1	-14	.	-2	-18	1	2	-10	i
O=C(Cc1cccc(F)c1)N1CCCC(CO)(Cc2ccc(F)cc2F)C1 (configuration not stated)	-18	-13	-2	-15	2	-4	4	i
O=C1N[C@@H](Cc2ccccc2)C(=O)N2CCC[C@@H]12	0	-15	2	-19	0	0	0	i
O=c1c2ccccc2n2cnnc2n1-c1ccccc1	.	-20	-6	.	1	8	8	i
CCNc1nc(C#N)nc2c1ncn2-c1cc(F)cc(F)c1	7	-17	.	10	-20	-8	.	.
COC(=O)c1sc(NC(=O)c2ccco2)nc1C	.	-10	6	9	11	6	-1	i
O=C1[C@@H]2CSCN2C(=O)CN1Cc1cccc(C(F)(F)F)c1	0	.	2	-2	2	2	-6	i

Part of the list above in order of SMILES length, rising.
SMILES	Env fusion inh	UUG fidelity	PABP FP inh	CSC inhib	MT1-MMP act inh	MT1-MMP act inh RFP	eIF4H inh	Rce1 inh	others
Cc1ccc(SCC(=O)n2nc(C)cc2C)cc1	-14	.	-2	-18	1	2	-10	i
O=c1c2ccccc2n2cnnc2n1-c1ccccc1	.	-20	-6	.	1	8	8	i
CCNc1nc(C#N)nc2c1ncn2-c1cc(F)cc(F)c1	7	-17	.	10	-20	-8	.	.

Carrying on:
SMILES	Env fusion inh	UUG fidelity	PABP FP inh	CSC inhib	MT1-MMP act inh	MT1-MMP act inh RFP	eIF4H inh	Rce1 inh	others
O=C(NCCc1csc(-c2cccnc2)n1)c1cccc2ccccc12	31	-22	-3	-1	1	-5	0	i
O=C(CSc1oc(-c2ccc(F)cc2)nc1S(=O)(=O)c1ccccc1)NCC1CCCO1 (configuration not stated)	-409	5	-2	-4	-3	-7	-5	.
CCOC(=O)C1=C[C@@H](C(C)(C)C)N(S(=O)(=O)c2ccc(C)cc2)[C@H]1c1ccc(OC)cc1	15	-13	.	.	2	-15	.	.
COc1ccc(NC(=O)COc2ccc(N(C)S(=O)(=O)c3ccc(Cl)cc3)cc2)cc1OC	57*	-1	.	.	3	-31	.	i
C=CCOc1ccc(C2=NOC(C(=O)Nc3ccc4c(c3)OCCO4)C2)cc1OC (configuration not stated)	12	-5	-2	0	0	-2	-12	i
COCC1CCCN(C(=O)c2cc(COc3cccc4cccnc34)on2)C1 (configuration not stated)	-238	-1	3	-7	1	1	-2	.
COC(=O)c1cc2sccc2n1Cc1nc(-c2ccc(OC)cc2)oc1C	?	-12	8	-2	2	1	-8	i
Cc1cc(C)c(NC(=O)CSc2ccc(-c3ccccn3)nn2)c(C)c1	-7	-33	17	8	3	0	-9	i
CCc1nc(C)cc(N)c1OCc1ccccc1	6	-11	-6	10	5	8	-4	i
Fc1ccc2c(c1)[C@H]1OCC[C@H]1[C@@H](c1ccco1)N2	-34	-21	-1	-10	3	5	-2	.
Cc1cccc(C)c1OCc1cc(C(=O)NC2CCC2)no1	-5	-2	0	0	-4	-1	89	i	eIF4H inh retest=-5;PABP FP inh retest=2
C#CCN(C[C@@H]1[C@@H](OC(=O)NCCCCCC)[C@@H](OC(=O)NCCCCCC)Cn2c(=O)n(CCCCCC)c(=O)n21)S(=O)(=O)c1ccc(C)cc1	17	-11	.	.	-3	-2	.	.
Cc1noc(C)c1CCC(=O)N1CCCC(CCC(=O)NCc2ccc(F)c(F)c2)C1 (configuration not stated)	-8	.	-7	1	-1	3	-5	i
CNC(=O)CN1C(=O)c2ccccc2S1(=O)=O	17	-12	12	-9	-4	3	-14	i
CCN(CC)CCN(C(=O)c1ccc(S(=O)(=O)N(C)C2CCCCC2)cc1)c1nc2c(C)cccc2s1	4	15	13	14	-2	-1	-3	i
COc1cc(C(=O)Nc2ccc(S(=O)(=O)NC(C)C)cc2)cc(OC)c1OC	-21	-11	-4	-3	15	-12	2	i
O=C(Nc1nc(-c2cccnc2)cs1)c1ccc(S(=O)(=O)N2CCOCC2)cc1	47	-15	-8	-23	-3	-4	0	i
CCOC(=O)c1ccc(COc2ccc(C(C)C)cc2)o1	-39	.	2	-4	1	2	-3	i
Cc1n[nH]c(C)c1CCNCc1ccc(OCC(O)CN2CCCCC2)cc1 (configuration not stated)	11	.	24	7	1	4	6	i
Cc1cccc(NC(=O)C(c2cccc([N+](=O)[O-])c2)N2CCCCC2)c1 (configuration not stated)	9	-11	-8	-12	-9	-4	-1	i
COc1ccc(NC(=O)CN(C)C(=O)COc2ccccc2Cc2ccccc2)cc1	-55	-21	.	1	4	-4	.	.
COc1ccc(C(C)NC(=O)c2ccc([N+](=O)[O-])cc2)cc1OC (configuration not stated)	.	-10	-1	6	-5	2	2	i
O=C(COc1ncnc2ccccc12)Nc1cccc(S(=O)(=O)N2CCOCC2)c1	-6	-10	-15	-9	5	2	-7	i
COc1cccc(N=Nc2c(N)[nH]n3c(=O)cc(-c4ccccc4)nc23)c1	.	-11	3	-8	9	-7	4	i
CCC(C)n1nccc1NC(=O)C(C)OC(=O)c1cc2ccccc2[nH]1 (configuration not stated)	23	7	5	-4	4	0	0	i

Screening data: PubChem BioAssay, several laboratories
